A1 inh = A1 inhibition; caspase activation, % (no concentration beside the values); actives 0.51% (n = 21,000); MEF A1-2A-BIM cells, caspase-Glo luminescence, 3 h; percent of clofoctol signal, DMSO as zero; AID 2241;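 active = most replicate scores above 10, or exactly half above 10 with mean activity above 10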;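 also: effector caspase 3 and 7 activity cleaving a DEVD luciferin substrate; 50 nL library stock added to about 30 µL; numbers are from one replicate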
BJeLR viab HTS = BJeLR cell viability reduction; BJeLR fibroblasts viability, CellTiterGlo ATP luminescence, 48 h; HRASV12, hTERT and SV40 LT/ST transformed; viability loss activity score, % (concentration not given with the values); actives 0.64% (n = 30,000); AID 2275; in the data active = viability loss activity score above about 50%; about a fifth of its hits are not listed in these tables;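 also: higher score means fewer live cells and less ATP luminescence; stock transfer was 50 or 100 nL into about 30 µL; 0% = vehicle wells and 100% = a reference killing control; one replicate is shown; the record names a cut of 85%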
* = called active by the depositor; x = not tested or not shown.

SMILES | A1 inh | BJeLR viab HTS
Cc1c(C)c(C)c(S(=O)(=O)N2CCCC2)c(C)c1C | 2.6 | 8.4
O=C(NC1CCCCC1)C1CCC(CNS(=O)(=O)c2ccccc2)CC1 (stereo not given) | 0.7 | 6.1
COc1ccc(S(=O)(=O)Nc2cccc3c2O[C@@H](CN(C)CC2CCCCC2)[C@H](C)CN([C@@H](C)CO)C3=O)cc1 | x | -4.0
NCCNC(=O)c1ccc(Cl)cc1 | 0.3 | -2.9
Cc1nc2c([nH]1)C1(CCC(c3ccccc3)CC1)C(C#N)=C(N)O2 (stereo not given) | -1.9 | -6.5
Cc1ccc(N=C2S/C(=C/c3cccc(OCC(=O)O)c3)C(=O)N2C)cc1C | 0.3 | -6.3
O=c1cc(N2CCCCC2)[nH]c(=O)n1C1CCCCC1 | 0.6 | 0.9
C=C(C)c1cccc(C(C)(C)NC(=O)NCc2ccc(OC)cc2)c1 | -0.1 | -8.3
CSc1ccc(CCNC(=O)c2cc3c(s2)-c2ccccc2S(=O)(=O)C3)cc1 | 0.9 | 0.7
COc1ccc(C2=NOC(C(=O)Nc3ccc(C)cc3)C2)cc1 (stereo not given) | x | 5.0
O=C(NCc1ccccc1)C(Cc1ccccc1)N1C(=O)c2ccccc2C1=O (stereo not given) | x | -1.8
C[C@H](CO)N1C[C@H](C)[C@H](CN(C)S(=O)(=O)c2ccccc2)Oc2c(NC(=O)Nc3ccc4c(c3)OCO4)cccc2C1=O | x | -4.7
O=C1C(NS(=O)(=O)c2ccccc2)=C/C(=N\S(=O)(=O)c2ccc(F)cc2)c2ccccc21 | x | 5.9
C[C@H](CO)N1C[C@H](C)[C@@H](CN(C)Cc2ccc(C(F)(F)F)cc2)Oc2ccc(NC(=O)CCCCCC(=O)Nc3ccccc3N)cc2C1=O | x | -2.2
Cc1cc2cc(CNC(=O)C34CC5CC(CC(C5)C3)C4)ccc2[nH]1 | x | -0.2
Cc1ccc(S(=O)(=O)Nc2cccc3c2O[C@H](CN(C)CC2CC2)[C@H](C)CN([C@H](C)CO)C3=O)cc1 | x | -4.7
CCCCc1nnc(NC(=O)Nc2ccc(C)cc2)s1 | x | -1.5
C[C@@H]1CN([C@H](C)CO)C(=O)c2cc(NS(=O)(=O)c3cccs3)ccc2O[C@H]1CN(C)Cc1ccc(C(F)(F)F)cc1 | -0.3 | -7.1
Cc1cccc(-c2nc3sc4c(c3c(=O)[nH]2)CCCC4)c1 | -0.7 | -7.1
C[C@H]1CN([C@@H](C)CO)C(=O)c2cc(N(C)C)ccc2O[C@@H]1CN(C)Cc1ccccc1 | 0.8 | 1.3
Cc1ccc(N2CCN(/N=C\C=C\c3ccccc3)CC2)cc1 | -0.1 | 2.1
O=c1[nH]c(CSc2ccccn2)nc2c1oc1ccccc12 | -4.7 | 2.4
NC(=O)c1ccc(C(=O)c2ccccc2)cc1 | -0.6 | -3.3
COc1ccc(Cl)cc1NC(=O)CN(c1ccccc1)S(=O)(=O)N(C)C | -1.2 | -1.4
CC(=O)OC1/C=C(/C(=O)O)CC/C=C(/C)C(=O)/C=C\C1(C)C (stereo not given) | 1.6 | -5.8

One compound at a time, from the list above. Values in the order: A1 inh | BJeLR viab HTS
Listed for C[C@@H]1CN([C@H](C)CO)C(=O)c2cc(NS(=O)(=O)c3cccs3)ccc2O[C@H]1CN(C)Cc1ccc(C(F)(F)F)cc1 : -0.3 | -7.1
Listed for COc1ccc(Cl)cc1NC(=O)CN(c1ccccc1)S(=O)(=O)N(C)C : -1.2 | -1.4
Listed for O=C(NC1CCCCC1)C1CCC(CNS(=O)(=O)c2ccccc2)CC1 (stereo not given) : 0.7 | 6.1
Listed for Cc1cc2cc(CNC(=O)C34CC5CC(CC(C5)C3)C4)ccc2[nH]1 : x | -0.2
Listed for Cc1ccc(N2CCN(/N=C\C=C\c3ccccc3)CC2)cc1 : -0.1 | 2.1

Next section
SMILES | A1 inh | BJeLR viab HTS
O=C(Nc1ccccc1)C(=S)Nc1ccccc1 | -5.6 | 12
CC(=O)N[C@@H](CC(C)C)C(=O)O | 0.1 | -2.3
O=C(OC[C@]12O[C@H]1[C@@H](O)[C@@H]1C=CO[C@@H](O[C@@H]3O[C@H](CO)[C@@H](O)[C@H](O)[C@H]3O)[C@@H]12)c1ccccc1 | 0.1 | 2.4
C=CCn1c(SCc2ccc(C(=O)O)cc2)nnc1-c1cccc(OC)c1 | 0.6 | -6.6
C[C@@H]1CN([C@@H](C)CO)C(=O)c2cc(NC(=O)Nc3ccc(F)cc3)ccc2O[C@H]1CN(C)Cc1ccc(C(F)(F)F)cc1 | 0.0 | -3.7
CCc1nc2n[nH]c(N)c2c2c1COC(C)(C)C2 | -0.2 | -2.6
S=C(Nc1ccccc1)N(Cc1ccccc1)Cc1ccccc1 | x | 0.3
Cc1noc(C)c1S(=O)(=O)Nc1cccc2c1O[C@H](CN(C)S(=O)(=O)c1ccc(Cl)cc1)[C@H](C)CN([C@H](C)CO)C2=O | x | -1.5
C[C@@H]1CN([C@H](C)CO)C(=O)c2cccc(NS(=O)(=O)c3ccc(Cl)cc3)c2O[C@H]1CN(C)Cc1ccncc1 | x | 1.5
C[C@H](CO)N1C[C@H](C)[C@@H](CN(C)S(=O)(=O)c2cn(C)cn2)Oc2ccc(NS(=O)(=O)c3cccs3)cc2C1=O | -0.2 | -0.3
CNC(=O)CSc1nc2ccccc2[nH]1 | 0.4 | -7.0
C[C@H]1CN([C@@H](C)CO)C(=O)c2cc(NC(=O)Nc3ccc(C(F)(F)F)cc3)ccc2O[C@@H]1CN(C)Cc1ccc(-c2ccccc2)cc1 | -0.4 | -2.4
COc1ccc(NC(=O)c2oc3ccc(S(=O)(=O)N4CCC5(CC4)OCCO5)cc3c2C)cc1 | -1.3 | 6.6
Cc1ccc(SC(=O)c2ccc(C#Cc3ccccc3)o2)cc1 | -3.0 | 2.6
O=C(NCCC1=CCCCC1)c1ccc2c(c1)ncn2C1CCCC1 | -0.6 | 2.6
C[C@@H]1O[C@@H](O[C@@H]2[C@@H](O)[C@H](Oc3c(-c4ccc(O)cc4)oc4cc(O)cc(O)c4c3=O)O[C@H](CO)[C@H]2O)[C@H](O)[C@H](O)[C@H]1O | 0.1 | -2.4
CCOC(=O)CSc1nc(SCC(=O)OCC)c2c3c(sc2n1)CCC3 | 0.8 | -4.3
c1csc(-c2nnc3n2-c2ccccc2SC3)c1 | 0.0 | 3.7
C[C@@H]1CN([C@H](C)CO)C(=O)c2cccc(NC(=O)C3CCCCC3)c2O[C@@H]1CN(C)C(=O)NC1CCCCC1 | x | -0.4
C[C@H]1CN([C@@H](C)CO)C(=O)c2cc(NC(=O)Cc3cn(C)c4ccccc34)ccc2O[C@H]1CN(C)Cc1ccc(C(=O)Nc2ccccc2N)cc1 | x | -0.7
COc1ccc(S(=O)(=O)Nc2cccc3c2O[C@H](CN(C)Cc2ccc(C(F)(F)F)cc2)[C@@H](C)CN([C@@H](C)CO)C3=O)cc1 | x | -1.5
CC1(C)N=C(NC(=O)NC(=O)c2ccccc2Cl)N(c2ccccc2)O1 | 0.6 | -2.9
C[C@H](CO)N1C[C@H](C)[C@H](CN(C)S(=O)(=O)c2ccc(F)cc2)Oc2c(NC(=O)c3ccc(-c4nccs4)cc3)cccc2C1=O | x | -2.4
CC(C)(C)c1cc(C(=O)NCc2cccs2)cc(C(=O)NCc2cccs2)c1 | 1.4 | -0.9
Cc1noc(C)c1NC(=O)N(C)C[C@H]1Oc2ccc(NC(=O)Nc3ccc(F)cc3)cc2C(=O)N([C@@H](C)CO)C[C@@H]1C | 0.4 | 3.3
The results go on:
SMILES | A1 inh | BJeLR viab HTS
CCC(C)NC(=O)CN1CCN(Cc2ccc(Cl)cc2)C1=O (stereo not given) | x | -0.1
O=C(CN1CCc2ccccc21)Nc1nnc(-c2cccs2)s1 | -0.7 | 0.2
Cc1c(O)ccc(-c2[nH]ncc2-c2nc3ccccc3s2)c1O | x | 2.7
C[C@@H]1CN([C@@H](C)CO)C(=O)c2cc(NC(=O)Nc3ccc(F)cc3)ccc2O[C@H]1CN(C)Cc1ccc2c(c1)OCO2 | 0.5 | 1.0
COc1ccc(N2CCc3c(C)c(C#N)c4nc5ccccc5n4c32)cc1 | 0.6 | 24
CC(C)NC(=O)Nc1ccc2c(c1)C(=O)N([C@H](C)CO)C[C@H](C)[C@H](CN(C)C(=O)NC1CCCCC1)O2 | 0.0 | 4.1
CCOc1ccc(NC(=O)C2(c3ccccc3)CCOCC2)cc1 | 0.7 | -0.8
O=C(C1CC1)N1c2ccccc2CCc2ccccc21 | 2.0 | 54*
COc1ccc(NC(=O)Nc2cccc3c2O[C@H](CN(C)Cc2ccc(C(=O)O)cc2)[C@@H](C)CN([C@H](C)CO)C3=O)cc1 | x | -0.7
CC(C)NC(=O)N(C)C[C@H]1Oc2c(NC(=O)C3CC3)cccc2C(=O)N([C@H](C)CO)C[C@@H]1C | x | 3.2
C[C@H](CO)N1C[C@H](C)[C@H](CN(C)S(=O)(=O)c2cccs2)Oc2c(NC(=O)c3nc4ccccc4s3)cccc2C1=O | x | 3.0
O=C1C2C(C(=O)N1C1CCCCC1)C1C=CC2C12CC2 (stereo not given) | 0.6 | -5.3
O=c1c2cnn(-c3ccc(Cl)cc3)c2ncn1Cc1ccc(Cl)cc1 | 0.0 | 1.3
O=C(Nc1cccnc1)C1CC(c2ccc(F)cc2)=NO1 (stereo not given) | x | 0.7
C[C@@H]1CN([C@@H](C)CO)C(=O)c2cccc(NC(=O)c3nc4ccccc4s3)c2O[C@@H]1CN(C)Cc1ccccc1 | x | -5.2
O=C(CCCn1c(=O)c2sccc2n(Cc2ccc(F)cc2)c1=O)NCc1ccc2c(c1)OCO2 | x | -2.2
COc1ccccc1/C=C(\C#N)c1ccc(C)cc1 | 0.0 | 2.0
C[C@@H]1CN([C@H](C)CO)C(=O)c2cc(NC(=O)Nc3ccccc3)ccc2O[C@H]1CN(C)Cc1ccc(-c2ccccc2)cc1 | 0.2 | 1.5
CCOC(=O)CCn1nc(-c2ccccc2)cc1N | x | -0.6
CSc1nnc(-c2ccc(S(=O)(=O)n3nc(C)cc3C)s2)n1C | 1.7 | -6.6
C=CCNC(=O)CCn1c(=S)[nH]c2cc3c(cc2c1=O)OCO3 | -0.2 | 2.8
COc1ccc(-c2cc(-c3ccccc3)c(C#N)c(SC3CCCCC3O)n2)cc1 (stereo not given) | 0.5 | -0.5
N#Cc1ccc(-c2ccncc2)nc1SCC(N)=O | 0.8 | -2.1
CCNc1nc(NCC)nc(OCCOC(C)=O)n1 | 0.1 | 4.4
CCc1ccc(NC(=O)N2CCC(c3ccccc3)C2)cc1 (stereo not given) | -2.3 | -0.2

4 compounds from above, ordered by length of the SMILES, descending.
SMILES | A1 inh | BJeLR viab HTS
C[C@@H]1CN([C@@H](C)CO)C(=O)c2cc(NC(=O)Nc3ccc(F)cc3)ccc2O[C@H]1CN(C)Cc1ccc2c(c1)OCO2 | 0.5 | 1.0
CC(C)NC(=O)Nc1ccc2c(c1)C(=O)N([C@H](C)CO)C[C@H](C)[C@H](CN(C)C(=O)NC1CCCCC1)O2 | 0.0 | 4.1
O=C(CN1CCc2ccccc21)Nc1nnc(-c2cccs2)s1 | -0.7 | 0.2
CCc1ccc(NC(=O)N2CCC(c3ccccc3)C2)cc1 (stereo not given) | -2.3 | -0.2

New compounds follow
SMILES | A1 inh | BJeLR viab HTS
Cc1noc(C)c1NC(=O)N(C)C[C@H]1Oc2c(NC(=O)c3nc4ccccc4s3)cccc2C(=O)N([C@H](C)CO)C[C@H]1C | x | 2.7
O=C(O)C1=NN(c2ccccc2)C(=O)/C1=C/c1cccs1 | 1.6 | 5.2
C[C@H](CO)N1C[C@H](C)[C@@H](CN(C)C(=O)Nc2ccc(F)cc2)Oc2c(NC(=O)c3nc4ccccc4s3)cccc2C1=O | x | 2.4
C[C@H]1CN([C@@H](C)CO)C(=O)c2cccc(NC(=O)Nc3ccc(F)cc3)c2O[C@H]1CN(C)C(=O)NC1CCCCC1 | x | -1.6
COc1ccc(S(=O)(=O)N(C)C[C@H]2Oc3c(NC(=O)c4nc5ccccc5s4)cccc3C(=O)N([C@@H](C)CO)C[C@@H]2C)cc1 | x | 4.2
O=C1CC(c2ccccc2)N(c2ccc(Cl)cc2Cl)C(=S)N1 (stereo not given) | 0.4 | 0.6
O=C1CSCC(=O)N1c1cccnc1 | 0.3 | -2.9
COc1ccc(S(=O)(=O)N(C)C[C@@H]2Oc3c(NS(=O)(=O)c4ccc(F)cc4)cccc3C(=O)N([C@@H](C)CO)C[C@H]2C)cc1 | x | 8.2
Cc1c(/C=C/c2ccc(Cl)cc2Cl)c(=O)n(-c2ccccc2)n1C | 0.9 | -6.0
COc1ccc(S(=O)(=O)Nc2ccc3c(c2)C(=O)N([C@@H](C)CO)C[C@H](C)[C@@H](CN(C)Cc2ccc(-c4ccccc4)cc2)O3)cc1 | 0.2 | -3.1
Cc1ccc(CNCc2c(C(=O)O)c(C)n(Cc3ccccc3)c2C)cc1 | 0.3 | -2.1
NCCCCCCNS(=O)(=O)c1cccc2ccccc12 | -0.5 | -6.1
Cc1ccc(S(=O)(=O)N(C)C[C@@H]2Oc3c(NC(=O)c4ccc(-c5nccs5)cc4)cccc3C(=O)N([C@H](C)CO)C[C@@H]2C)cc1 | x | -4.4
CC(C)NC(=O)c1ccc2c(c1)N(Cc1ccccc1F)C(=O)c1ccccc1S2(=O)=O | x | 1.7
C[C@H]1CN([C@@H](C)CO)C(=O)c2cc(NS(=O)(=O)c3cccs3)ccc2O[C@@H]1CN(C)C(=O)NC1CCCCC1 | -1.1 | -12
CCSc1ccc2nnc(CCNC(=O)c3ccccc3)n2n1 | 0.1 | 0.2
C[C@H](CO)N1C[C@H](C)[C@@H](CN(C)Cc2ccc(Oc3ccccc3)cc2)Oc2ccc(NC(=O)NC3CCCCC3)cc2C1=O | -1.1 | 1.6

Source: PubChem

This is a subset. The share of hits here may be higher or lower than overall.
